Screening data: PubChem BioAssay, several laboratories
RGS16-Gao HTS = modulates binding between human RGS16 and Galphao; bead-based flow cytometry RGS16-Galphao binding, fluorescence; actives lie on both sides; O15492+P09471; binding response (% of control), % at 10 µM; hit rate 0.38% among 220,000;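 active means below 25% or above 175%, edge rows of some plates excepted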;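 further: Galphao activated by GDP with aluminum fluoride before binding; 100% = wells without compound and 0% = beads without RGS; some results beyond the cut were filed as inactive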
Target sequence (O15492 whole entry, looked up): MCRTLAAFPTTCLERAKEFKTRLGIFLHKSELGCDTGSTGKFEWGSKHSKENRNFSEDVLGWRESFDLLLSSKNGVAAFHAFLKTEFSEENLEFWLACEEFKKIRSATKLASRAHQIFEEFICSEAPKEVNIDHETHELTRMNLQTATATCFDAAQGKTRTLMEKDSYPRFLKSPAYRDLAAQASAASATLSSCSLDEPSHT
Target sequence (P09471 whole entry, looked up): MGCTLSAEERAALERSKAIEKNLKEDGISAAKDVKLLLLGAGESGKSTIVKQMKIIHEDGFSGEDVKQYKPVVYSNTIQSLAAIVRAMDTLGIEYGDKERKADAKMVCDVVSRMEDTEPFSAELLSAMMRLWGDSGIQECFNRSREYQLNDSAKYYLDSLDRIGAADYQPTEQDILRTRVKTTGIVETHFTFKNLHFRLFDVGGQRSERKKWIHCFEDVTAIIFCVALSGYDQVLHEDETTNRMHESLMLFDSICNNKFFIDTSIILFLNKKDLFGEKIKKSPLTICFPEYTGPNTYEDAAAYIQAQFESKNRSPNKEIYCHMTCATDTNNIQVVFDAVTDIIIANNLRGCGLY
GALR2 ag = agonists of human galanin receptor 2 (GALR2); GALR2-expressing cells, agonist activation read-out; activation, %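 (tested at 5 µM)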; hit rate 0.48% among 140,000; AID 803;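 active means above mean plus 3 SD of all compounds, about 5% in these data, not always enough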;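 further: 0% = vehicle buffer wells and 100% = reference agonist at full effect; tested in CHO reporter cells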
Target sequence (O43603 whole entry, looked up): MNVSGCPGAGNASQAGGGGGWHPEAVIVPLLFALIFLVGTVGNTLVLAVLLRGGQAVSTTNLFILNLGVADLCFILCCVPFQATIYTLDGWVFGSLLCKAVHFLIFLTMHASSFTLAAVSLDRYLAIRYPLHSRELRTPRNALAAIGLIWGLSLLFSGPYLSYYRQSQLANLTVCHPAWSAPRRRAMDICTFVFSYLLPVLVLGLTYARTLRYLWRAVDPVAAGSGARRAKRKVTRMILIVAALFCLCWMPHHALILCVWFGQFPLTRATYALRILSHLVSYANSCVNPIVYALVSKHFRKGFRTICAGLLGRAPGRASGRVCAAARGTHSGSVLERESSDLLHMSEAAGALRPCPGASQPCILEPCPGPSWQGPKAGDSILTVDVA
INS promoter inh = TRM-6 insulin promoter activity inhibition | inhibition, % at 2 µM | TRM-6 cells (human fetal islet line), insulin promoter-eGFP reporter, imaging; reporter expression induced with tamoxifen | AID 1273 | hit rate 0.9% among 130,000;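 active means inhibition above the mean plus 3 SD, with well images judged a real hit on visual review, cut at about 60% in these data, passing the limit was not always enough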
PKD1 inh = inhibitors of human PKD1 kinase; Q15139; PKD1 kinase fluorescence polarization assay; inhibition, %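 (about 10 µM by stock and volumes)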; hit rate 0.056% among 200,000; AID 797;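 active means inhibition of 50% or more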;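 further: controls were vehicle for no effect and a reference inhibitor for full effect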
HSV augment = increases HSV replication in cells; HSV replication augmentation in cells, fold increase; AID 1956; maximum fold increase; hit rate 0.005% among 220,000;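 active means peak rise of 1.5-fold or more in the series; tested in PC3 cells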;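 further: first round at 10 µM; read as green reporter fluorescence; hits show the peak of a series up to 25 µM; 1 = signal of infected wells without compound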
INS promoter inh cell count = further read-out of INS promoter inh, marked with its call; normalized cell count, %; measured here: cell count, toxicity; reference of the scale not given here;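 cells exposed to compound for 48 h; stained nuclei by imaging scaled within each plate; lower means fewer cells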
HSV augment primary fold = second read-out of HSV augment, no call of its own (marks repeat the call); fold increase; compound at 10 µM; measured here: primary screen fold increase 10 uM; tested in PC3 cells;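 GFP signal in the first replicate; 1 = infected wells without compound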
The depositor's hits bear a star. Random draw from the library; about 1.3% have a hit in one of these screens.

Screening Cc1cc(C)n(C(=O)CNC(=O)c2ccc3c(c2)OCCO3)n1 returned RGS16-Gao HTS 99.5, GALR2 ag -2.5, INS promoter inh 9.1, PKD1 inh -3.1, HSV augment inactive, INS promoter inh cell count 81.4 and HSV augment primary fold 0.93.
`COC(=O)CCCC1=CC2=CC(=O)C(C)(OC(=O)c3cccs3)C(=O)C2=CN1Cc1ccc2c(c1)OCO2` (configuration not stated) gave RGS16-Gao HTS 96.5, HSV augment inactive and HSV augment primary fold 1.14.
Screening CC(C)N(C)C1CCN(C(=O)Nc2ccc(Cl)cc2)CC1 returned RGS16-Gao HTS 105.6, GALR2 ag -2.7, PKD1 inh 2.3, HSV augment inactive and HSV augment primary fold 0.82.
CC1=C(C(=O)Nc2ccccc2C)C2(CCCC2)C(C(N)=O)C(=O)N1 (configuration not stated) was read as RGS16-Gao HTS 99.8, GALR2 ag -3.8, INS promoter inh -34.2, PKD1 inh 4.3, HSV augment inactive, INS promoter inh cell count 293.2 and HSV augment primary fold 0.81.
Cc1ccc(OCC(=O)N2CC(C)OC(C)C2)c([N+](=O)[O-])n1 (configuration not stated) was read as RGS16-Gao HTS 101.2, INS promoter inh -40.0, PKD1 inh 1.7, HSV augment inactive, INS promoter inh cell count 115.0 and HSV augment primary fold 0.93.
For NNC(=O)c1cccc(S(=O)(=O)Nc2cccc(C(F)(F)F)c2)c1 the results were RGS16-Gao HTS 100.2, HSV augment inactive and HSV augment primary fold 1.13.
Screening O=C(NCCCN1CCc2ccccc2C1)C1CCN(S(=O)(=O)N2CCC3(CC2)OCCO3)CC1 returned RGS16-Gao HTS 120.4, INS promoter inh -35.7, PKD1 inh -9.9 and INS promoter inh cell count 45.3.
c1ccc2c(c1)CCNC2c1ccncc1 (configuration not stated) was read as RGS16-Gao HTS 109.6, HSV augment inactive and HSV augment primary fold 0.99.
Screening N/C(=N\OC(=O)COc1ccc(Cl)cc1)c1ccc(Cl)cc1 returned RGS16-Gao HTS 121.8, GALR2 ag -0.5, INS promoter inh -58.3, PKD1 inh -1.0, HSV augment inactive, INS promoter inh cell count 49.4 and HSV augment primary fold 1.04.
O=C(CNc1ccccc1)N/N=C/c1ccc2c(c1)OCO2 was read as RGS16-Gao HTS 93.5, GALR2 ag 0.0, INS promoter inh -43.3, PKD1 inh 8.6, HSV augment inactive, INS promoter inh cell count 110.8 and HSV augment primary fold 0.89.
For Cc1nnc(SCC(=O)NCC2CCCO2)n1-c1ccccc1 (configuration not stated) the results were RGS16-Gao HTS 100.1, GALR2 ag -2.0, INS promoter inh 25.0, PKD1 inh -9.3, HSV augment inactive, INS promoter inh cell count 97.6 and HSV augment primary fold 1.04.
For CC1=C(C(=O)O)N2C(=O)C(NC(=O)c3nn(C)cc3[N+](=O)[O-])C2SC1 (configuration not stated) the results were RGS16-Gao HTS 93.1, PKD1 inh -3.8, HSV augment inactive and HSV augment primary fold 0.98.
Brc1c(-c2ccc3c(c2)OCO3)nc2ncccn12 was read as RGS16-Gao HTS 101.4, PKD1 inh -5.0, HSV augment inactive and HSV augment primary fold 1.13.
`CCOC(=O)N1CCC(c2[nH][nH]c(=O)c2C)CC1` gave RGS16-Gao HTS 104.1, GALR2 ag -0.1, PKD1 inh -4.9, HSV augment inactive and HSV augment primary fold 1.04.
For C=CCn1c(=O)[nH]c2cc(C(=O)N3CCN(c4cc(C)ccc4C)CC3)ccc2c1=O the results were RGS16-Gao HTS 105.7, GALR2 ag 0.2, INS promoter inh -40.5, PKD1 inh 1.5 and INS promoter inh cell count 100.3.
`COc1ccc(-c2[nH]ncc2-c2cnn(-c3ccccc3)c2)c(O)c1` gave RGS16-Gao HTS 99.8, GALR2 ag -0.1, PKD1 inh 14.0, HSV augment inactive and HSV augment primary fold 0.72.
For Cc1ccc(C(=O)N2CCCC2)cc1S(=O)(=O)Nc1ccccc1 the results were RGS16-Gao HTS 107.1, GALR2 ag -2.9, INS promoter inh 34.3, PKD1 inh -0.6, HSV augment inactive, INS promoter inh cell count 110.7 and HSV augment primary fold 0.92.
For COCCCNC(=O)CCC(=O)NNc1nc2ccccc2c2nc(C)nn12 the results were RGS16-Gao HTS 99.0, PKD1 inh -4.5, HSV augment inactive and HSV augment primary fold 0.94.
`CCC(=O)NC(=S)NNC(=O)c1ccc(O)cc1` gave RGS16-Gao HTS 95.8, PKD1 inh 3.6, HSV augment inactive and HSV augment primary fold 1.1.
Screening COC(=O)c1ccc(C(=O)OC)c(NC(=O)/C=C/C(=O)O)c1 returned RGS16-Gao HTS 101.8, HSV augment inactive and HSV augment primary fold 1.02.

Among those listed so far, two contain a nitro group on carbon.
Cc1ccc(OCC(=O)N2CC(C)OC(C)C2)c([N+](=O)[O-])n1 (configuration not stated) was read as RGS16-Gao HTS 101.2, INS promoter inh -40.0, PKD1 inh 1.7, HSV augment inactive, INS promoter inh cell count 115.0 and HSV augment primary fold 0.93.
For CC1=C(C(=O)O)N2C(=O)C(NC(=O)c3nn(C)cc3[N+](=O)[O-])C2SC1 (configuration not stated) the results were RGS16-Gao HTS 93.1, PKD1 inh -3.8, HSV augment inactive and HSV augment primary fold 0.98.

More results
Screening S=c1[nH]nc(CSCc2ccccc2Cl)n1-c1ccccc1 returned RGS16-Gao HTS 94.0, GALR2 ag -2.4, INS promoter inh 40.0, PKD1 inh 2.6, HSV augment inactive, INS promoter inh cell count 70.5 and HSV augment primary fold 1.14.
`Cc1cc2ccccn2c1C(=O)c1ccc(Cl)c([N+](=O)[O-])c1` gave RGS16-Gao HTS 99.2, PKD1 inh -3.6, HSV augment inactive and HSV augment primary fold 1.03.
`CCCc1cc(=O)[nH]c(SCC(=O)c2cc(C)n(C(C)COC)c2C)n1` (configuration not stated) gave RGS16-Gao HTS 138.8, GALR2 ag 0.3, INS promoter inh 33.3, PKD1 inh -10.3, HSV augment inactive, INS promoter inh cell count 87.9 and HSV augment primary fold 0.9.
Screening O=C(Nc1ccc(-c2cn3ccsc3n2)cc1)C1COc2ccccc2O1 (configuration not stated) returned RGS16-Gao HTS 66.2, GALR2 ag -1.9, PKD1 inh 0.7, HSV augment inactive and HSV augment primary fold 0.867.
`COc1cccc(OCc2nc3ccccc3[nH]2)c1` gave RGS16-Gao HTS 106.7, GALR2 ag -2.7, PKD1 inh 1.4, HSV augment inactive and HSV augment primary fold 0.88.
`CCC(=O)Nc1nnc(-c2ccc(Cl)s2)o1` gave RGS16-Gao HTS 109.2, INS promoter inh 0.0, PKD1 inh 0.5, HSV augment inactive, INS promoter inh cell count 137.0 and HSV augment primary fold 0.9.
CC1=C(C#N)C(NC(=O)C(C)(C)C)(C(F)(F)F)C(=O)N1 (configuration not stated) was read as RGS16-Gao HTS 103.2, GALR2 ag -1.5, INS promoter inh 8.3, PKD1 inh -6.0, HSV augment inactive, INS promoter inh cell count 95.2 and HSV augment primary fold 0.91.
`S=C(Nc1ccccc1)Nc1cccc(Cl)c1Cl` gave RGS16-Gao HTS 94.4, PKD1 inh -3.9, HSV augment inactive and HSV augment primary fold 0.97.
For CCOC(=O)C1CCN(CC(=O)Nc2c(C(=O)OC)n(C)c3cccc(C)c23)CC1 the results were RGS16-Gao HTS 112.8, GALR2 ag -2.3, PKD1 inh 7.7, HSV augment inactive and HSV augment primary fold 0.97.
`COc1ccc(N(CC(=O)NCc2ccc3c(c2)OCO3)S(C)(=O)=O)cc1OC` gave RGS16-Gao HTS 98.5, GALR2 ag -0.4, INS promoter inh 8.6, PKD1 inh -6.5, HSV augment inactive, INS promoter inh cell count 122.1 and HSV augment primary fold 0.87.

Entries shown so far that have a CF3 group:
For NNC(=O)c1cccc(S(=O)(=O)Nc2cccc(C(F)(F)F)c2)c1 the results were RGS16-Gao HTS 100.2, HSV augment inactive and HSV augment primary fold 1.13.
CC1=C(C#N)C(NC(=O)C(C)(C)C)(C(F)(F)F)C(=O)N1 (configuration not stated) was read as RGS16-Gao HTS 103.2, GALR2 ag -1.5, INS promoter inh 8.3, PKD1 inh -6.0, HSV augment inactive, INS promoter inh cell count 95.2 and HSV augment primary fold 0.91.

Other results.
Screening O=C(CSc1nnnn1C1CCCC1)Nc1ccccc1N1CCOCC1 returned RGS16-Gao HTS 101.2, INS promoter inh 10.0, PKD1 inh 10.5, HSV augment inactive, INS promoter inh cell count 145.3 and HSV augment primary fold 0.97.
Screening COc1cc(C(NC=O)C(=O)Nc2c(C)cccc2C)ccc1O (configuration not stated) returned RGS16-Gao HTS 94.8, HSV augment inactive and HSV augment primary fold 1.02.
`N#Cc1ccc(Oc2cccnc2)cc1C#N` gave RGS16-Gao HTS 84.4, GALR2 ag -3.0, PKD1 inh -10.2, HSV augment inactive and HSV augment primary fold 1.02.
`CSCC[C@H](NC(=O)OC(C)(C)C)C(=O)N/N=C/c1ccc2nccnc2c1` gave RGS16-Gao HTS 104.2, HSV augment inactive and HSV augment primary fold 1.
`COC(C(=O)Nc1ccc(F)cc1F)c1ccccc1` (configuration not stated) gave RGS16-Gao HTS 106.0, GALR2 ag 0.9, INS promoter inh -16.7, PKD1 inh -10.9, HSV augment inactive, INS promoter inh cell count 109.7 and HSV augment primary fold 0.943.
For O=C(c1cccc(C(F)(F)F)c1)N1CCC(O)(CS(=O)(=O)Cc2ccccc2Cl)CC1 the results were RGS16-Gao HTS 97.1, GALR2 ag -1.2, INS promoter inh 16.1, PKD1 inh -10.0, HSV augment inactive, INS promoter inh cell count 101.5 and HSV augment primary fold 0.84.
COC(=O)c1ccc(C(=O)OC)c(NC(=O)COC(=O)C2CC2C)c1 (configuration not stated) was read as RGS16-Gao HTS 100.1, GALR2 ag 0.4, INS promoter inh -9.9, PKD1 inh -9.1 and INS promoter inh cell count 107.1.
For Cc1ccc(NC(=S)N2CCCCCC2)cc1 the results were RGS16-Gao HTS 105.2, HSV augment inactive and HSV augment primary fold 0.96.
For O=C(COc1ccc(-n2cnnn2)cc1)NC1CCCCC1 the results were RGS16-Gao HTS 103.8, GALR2 ag -1.1, INS promoter inh -4.3, PKD1 inh 4.1, HSV augment inactive, INS promoter inh cell count 118.7 and HSV augment primary fold 0.97.
Screening CC(C)C(=O)Nc1ccccc1N1CCN(S(C)(=O)=O)CC1 returned RGS16-Gao HTS 101.3, GALR2 ag -3.0, INS promoter inh 50.7, PKD1 inh 0.0, HSV augment inactive, INS promoter inh cell count 55.9 and HSV augment primary fold 1.05.
`CSc1ccccc1NC(=O)CN(C)CC(=O)Nc1ccccc1F` gave RGS16-Gao HTS 113.8, GALR2 ag -0.3, INS promoter inh -33.3, PKD1 inh 6.0, HSV augment inactive, INS promoter inh cell count 112.1 and HSV augment primary fold 0.86.
Screening CSc1nnc(C)c(/C=C/NOCc2ccc(Cl)cc2)n1 returned RGS16-Gao HTS 96.3, PKD1 inh 2.9, HSV augment inactive and HSV augment primary fold 0.98.
`COc1ccc(Nc2ccc(N3C(=O)CCC3=O)cc2[N+](=O)[O-])cn1` gave RGS16-Gao HTS 104.4, PKD1 inh -5.7, HSV augment inactive and HSV augment primary fold 0.9.
COC(=O)c1c(C)oc(C)c1S(=O)(=O)N1CCOCC1 was read as RGS16-Gao HTS 91.1, HSV augment inactive and HSV augment primary fold 1.15.
For CCn1cc(CNC(=O)/C=C/c2cnn(C)c2)c(C)n1 the results were RGS16-Gao HTS 104.5, GALR2 ag -0.6, INS promoter inh -53.9, PKD1 inh 17.0, HSV augment inactive, INS promoter inh cell count 108.0 and HSV augment primary fold 1.09.
CC(=O)Nc1ccc(NC(=O)C2CC(=O)Nc3nc4ccccc4n32)cc1 (configuration not stated) was read as RGS16-Gao HTS 100.0, HSV augment inactive and HSV augment primary fold 0.98.
For CN1CCN(c2ncnc3c2cnn3-c2ccc(Cl)cc2)CC1 the results were RGS16-Gao HTS 104.4, GALR2 ag 1.2, PKD1 inh -1.4, HSV augment inactive and HSV augment primary fold 1.02.
O=C(C(Cc1ccccc1)N1C(=O)C2C3C=CC(C3)C2C1=O)N1CCCCCC1 (configuration not stated) was read as RGS16-Gao HTS 105.8, GALR2 ag -1.3, INS promoter inh -61.0, PKD1 inh -3.1, HSV augment inactive, INS promoter inh cell count 83.6 and HSV augment primary fold 1.01.
Screening O=C(COc1ccc2c(C(F)(F)F)cc(=O)oc2c1)Nc1ccc2c(c1)OCCO2 returned RGS16-Gao HTS 97.9, GALR2 ag -0.3, INS promoter inh -2.7, PKD1 inh -1.2, HSV augment inactive, INS promoter inh cell count 111.7 and HSV augment primary fold 1.06.
O=[N+]([O-])c1cccc(OCc2cn3cccnc3n2)c1 was read as RGS16-Gao HTS 91.6, INS promoter inh 0.0, PKD1 inh 0.1, HSV augment inactive, INS promoter inh cell count 93.7 and HSV augment primary fold 0.99.
For CCOC(=O)C1(CCc2ccccc2)CCN(C(=O)C2=C(C)OCCO2)CC1 the results were RGS16-Gao HTS 102.7, PKD1 inh -5.5, HSV augment inactive and HSV augment primary fold 0.99.
